From PubChem
NOMO-1 viab = NOMO-1 AML cell viability reduction, primary screen, STK33 inhibitor project, CellTiter-Glo luminescence | NOMO-1 AML viability, 72 h | inhibition, % (concentration not given with the values) | 37,000 compounds, 7.5% hits | AID 2330, 2010;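 active = most replicates above 80%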;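 note: wells of about 30 µL received 25 nL stock; 0% = median of vehicle wells and 100% = reference inhibitor level; the first replicate is given; inactives centre near 10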
Starred values were filed as active, the others as inactive. Only part of the results is shown, so the mix of outcomes need not match the whole.

SMILES	NOMO-1 viab
C[C@@H]1CN([C@H](C)CO)C(=O)c2cc(NC(=O)Nc3ccc(F)cc3)ccc2O[C@H]1CN(C)Cc1ccc(C(F)(F)F)cc1	117.3*
O=C(CSC1N=C2C=CC=CC2O1)c1ccccc1 (centres undefined)	49.1
COc1ccccc1CCNC(=O)c1cc(-c2ccccc2)nc2ccccc12	45.1
O=C1C(=O)N(Cc2ccco2)C(c2cccs2)C1C(=O)c1cccs1 (centres undefined)	11.4
Cc1ccc(NC(=O)CSC2CC(=O)N(c3ccccc3)C2=O)cc1C (centres undefined)	8.9
C[C@@H]1CC[C@]2(C)[C@H](CC[C@@H](O)[C@]2(C)O)[C@@]1(C)CC(=O)c1ccoc1	9.8
C[C@H](CO)N1C[C@H](C)[C@H](CN(C)S(C)(=O)=O)Oc2c(NC(=O)c3ccc(-c4nccs4)cc3)cccc2C1=O	1.8
COc1ccc(S(=O)(=O)n2nc(OC(=O)C(C)(C)C)cc2N)cc1	47.9
C[C@@H]1CN([C@H](C)CO)C(=O)Cc2cc(NS(=O)(=O)c3ccc(Cl)cc3)ccc2O[C@@H]1CN(C)S(=O)(=O)c1ccc(Cl)cc1	19.9
C[C@H](CO)N1C[C@H](C)[C@H](CN(C)C(=O)Nc2ccc(F)cc2)Oc2ccc(NC(=O)Nc3ccccc3)cc2CC1=O	25.4
C[C@@H]1CN([C@H](C)CO)C(=O)Cc2cc(NC(=O)C3CCCCC3)ccc2O[C@@H]1CN(C)C(=O)Nc1cccc2ccccc12	27.8
C[C@H](CO)N1C[C@H](C)[C@@H](CN(C)C(=O)Nc2ccc3c(c2)OCO3)Oc2ccc(NS(C)(=O)=O)cc2C1=O	16.5
C[C@@H]1CN([C@H](C)CO)C(=O)c2cc(NS(C)(=O)=O)ccc2O[C@H]1CN(C)S(=O)(=O)c1ccccc1	18.1
CCOc1ccccc1OCC(=O)Nc1cc(Cl)ccc1OC	14.4
CC1(C)Cc2nc3nc(SCC(=O)Nc4ccccc4)nc(N)c3cc2CO1	10.8
COc1ccc(S(=O)(=O)N(C)C[C@H]2Oc3ccc(NC(=O)Nc4cccc5ccccc45)cc3C(=O)N([C@@H](C)CO)C[C@@H]2C)cc1	-20.3
C[C@@H]1CN([C@@H](C)CO)C(=O)c2cccc(NS(=O)(=O)c3ccc(F)cc3)c2O[C@@H]1CN(C)C(=O)Nc1ccc2c(c1)OCO2	10.8
CCOc1cc(N2CCOCC2)c(OCC)cc1NC(=O)C(C)(C)C	-32.1
C/C(=N\O)C(C)(C)Nc1ccc(C(C)(C)C)cc1	39.0
COc1ccc(NC(=O)N(C)C[C@@H]2Oc3ccc(NC(=O)Nc4ccc(F)cc4)cc3C(=O)N([C@@H](C)CO)C[C@H]2C)cc1	14.0
C[C@@H]1CN([C@H](C)CO)C(=O)Cc2cc(NC(=O)c3ccncc3)ccc2O[C@H]1CN(C)C(=O)Nc1ccc(F)cc1	5.7
CN(c1ccccc1)S(=O)(=O)c1ccc(Cl)cc1	31.5
CSc1nnc2c(n1)OC(C1CC=C(C)CC1)Nc1ccccc1-2 (centres undefined)	15.6
CCOC(=O)c1[nH]c(C(=O)O)c(CC)c1C	18.2
O=[N+]([O-])c1ccccc1-c1ccc(-c2nn3c(-c4ccccc4)nnc3s2)o1	64.8
Cc1ccc(S(=O)(=O)Nc2cccc3c2O[C@H](CN(C)C(=O)Nc2ccc4c(c2)OCO4)[C@H](C)CN([C@H](C)CO)C3=O)cc1	18.0
COc1ccc(S(=O)(=O)Nc2cccc3c2O[C@H](CN(C)C(=O)NC2CCCCC2)[C@@H](C)CN([C@H](C)CO)C3=O)cc1	8.4
COc1ccc(S(=O)(=O)Nc2cccc3c2O[C@H](CN(C)S(=O)(=O)c2ccccc2)[C@H](C)CN([C@@H](C)CO)C3=O)cc1	43.5
CC(C)NC(=O)Nc1ccc2c(c1)C(=O)N([C@H](C)CO)C[C@H](C)[C@@H](CN(C)C(=O)Nc1ccc(C(F)(F)F)cc1)OCCCC[C@@H](C)O2	9.6
O=C(CC1Nc2cccc3cccc(c23)NC1=O)Nc1ccc(F)cc1 (centres undefined)	0.7
C[C@@H]1CN([C@@H](C)CO)C(=O)c2cc(NC(=O)c3ccncc3)ccc2O[C@H]1CN(C)Cc1ccc(-c2ccccc2)cc1	28.5
C[C@@H]1CN([C@@H](C)CO)C(=O)c2cccc(NC(=O)Nc3ccc4c(c3)OCO4)c2O[C@H]1CN(C)S(C)(=O)=O	-4.9
CCc1c(C)sc(NC(=O)COc2ccccc2)c1C(=O)N1CCOCC1	7.2
COc1ccc(-c2noc(CSc3nnc(-c4ccccc4)n3C)n2)cc1	-4.9
C[C@H](CO)N1C[C@H](C)[C@H](CN(C)CC2CC2)Oc2ccc(NC(=O)Cc3ccccc3)cc2C1=O	-24.0
C[C@H]1CN([C@@H](C)CO)C(=O)c2cc(NS(=O)(=O)c3cccs3)ccc2O[C@@H]1CN(C)S(=O)(=O)c1ccc(Cl)cc1	5.3
CCn1c(NCc2ccccc2O)nc2ccccc21	12.9
CNC[C@H]1Oc2ccc(NC(=O)Cn3cnnn3)cc2CC(=O)N([C@@H](C)CO)C[C@H]1C	-19.9
N#Cc1c(-c2cccs2)cc(-c2ccc(C(=O)O)cc2)nc1SCc1cccs1	34.7
CCN(CC)CCOc1ccccc1	-1.1
CNC[C@H]1Oc2ccc(NC(=O)Cc3ccccc3)cc2CC(=O)N([C@@H](C)CO)C[C@@H]1C	-17.2
CCS(=O)(=O)c1nc2ccccc2n1CC(=O)N1CCOCC1	-3.2
C[C@H]1CN([C@@H](C)CO)C(=O)Cc2cc(NC(=O)NC3CCCCC3)ccc2O[C@@H]1CN(C)C(=O)Nc1ccccc1	6.9
C[C@@H]1CN([C@H](C)CO)C(=O)c2cc(NC(=O)c3ccncc3)ccc2O[C@H]1CN(C)Cc1ccc(C(F)(F)F)cc1	19.9
Cc1noc(C)c1S(=O)(=O)N(C)C[C@@H]1Oc2ccc(NS(=O)(=O)c3cccs3)cc2CC(=O)N([C@H](C)CO)C[C@H]1C	6.8
CC(=O)Nc1c(O)nc(SCC(=O)N(c2ccccc2)c2ccccc2)[nH]c1=O	0.7
Cc1cc(C(=O)Nc2cccc3c2O[C@@H](CN(C)Cc2ccc(C(=O)O)cc2)[C@@H](C)CN([C@H](C)CO)C3=O)n(C)n1	23.8
Cc1noc(C)c1NC(=O)N(C)C[C@H]1Oc2ccc(NC(=O)Cn3cnnn3)cc2CC(=O)N([C@@H](C)CO)C[C@@H]1C	-4.5
CCc1cccc(C)c1NC(=O)COc1ccc(NC(C)=O)cc1	-3.2
C[C@H]1CN([C@@H](C)CO)C(=O)Cc2cc(N(C)C)ccc2O[C@@H]1CN(C)C(=O)Nc1ccc(F)cc1	-13.0
CCOc1ccc(NC(=O)Cn2c(-c3ccc(OC)cc3)nc3sc4c(c3c2=O)CCCC4)cc1	31.2
CCOc1ccc(NC(=O)C2CC(=O)n3cnnc3N2)cc1 (centres undefined)	-1.0
C[C@H]1CN([C@@H](C)CO)C(=O)c2cccc(NS(=O)(=O)c3ccc(F)cc3)c2O[C@H]1CN(C)Cc1ccc(Cl)c(Cl)c1	24.0
COc1ccc(NC(=O)Cc2nc(-c3ccc(OC)cc3)cs2)cc1	25.8
C[C@H]1CN([C@@H](C)CO)C(=O)c2cc(NS(=O)(=O)c3ccccc3)ccc2O[C@H]1CN(C)Cc1ccc2c(c1)OCO2	25.8
Cc1cc(SCC(=O)Nc2ccc(SC(F)F)cc2)nc2ccccc12	-17.9
Cn1c2c(c(=O)n(C)c1=O)CN(C1CCCC1)CN2	21.7
Cc1cc(C)c(S(=O)(=O)NCC(=O)Nc2cccc(Cl)c2Cl)c(C)c1	35.2
CC(C)NC(=O)N(C)C[C@H]1Oc2c(NC(=O)Nc3cccc4ccccc34)cccc2C(=O)N([C@@H](C)CO)C[C@@H]1C	23.0
C[C@@H]1CN([C@H](C)CO)C(=O)c2cccc(NC(=O)C3CC3)c2O[C@@H]1CN(C)Cc1ccc(Cl)c(Cl)c1	33.4
More records:
SMILES	NOMO-1 viab
Cc1ccc(S(=O)(=O)Nc2ccc3c(c2)CC(=O)N([C@H](C)CO)C[C@@H](C)[C@H](CN(C)Cc2ccc4c(c2)OCO4)O3)cc1	9.0
Cc1noc(C)c1NC(=O)Nc1ccc2c(c1)C(=O)N([C@@H](C)CO)C[C@@H](C)[C@H](CN(C)CC1CCCCC1)O2	2.6
COc1ccc(CN(C)C[C@H]2OCCCC[C@@H](C)Oc3ccc(N(C)C)cc3C(=O)N([C@H](C)CO)C[C@@H]2C)cc1	7.7
C[C@H](CO)N1C[C@H](C)[C@@H](CN(C)C(=O)Nc2ccccc2)Oc2ccc(NS(=O)(=O)c3ccc(Cl)cc3)cc2C1=O	25.4
C[C@H](CO)N1C[C@H](C)[C@@H](CN(C)C(=O)NC2CCCCC2)Oc2ccc(NS(=O)(=O)c3ccc(Cl)cc3)cc2C1=O	2.3
COc1ccc(-n2c(SCC(=O)N3CCOCC3)nnc2-c2ccc(Cl)cc2)cc1	8.7
COc1ccc(OCC(O)CNC(C)(C)C)cc1 (centres undefined)	3.5
O=C(CSc1nnc(-c2ccccc2O)n1-c1ccccc1)N1CCc2ccccc21	47.1
CC(C)NC(=O)Nc1ccc2c(c1)CC(=O)N([C@H](C)CO)C[C@@H](C)[C@@H](CN(C)C(=O)Nc1ccccc1)O2	14.9
C[C@@H]1CN([C@H](C)CO)C(=O)c2cccc(NC(=O)NC3CCCCC3)c2O[C@H]1CN(C)C(=O)Nc1ccc(C(F)(F)F)cc1	8.1
CC(C)NC(=O)Nc1ccc2c(c1)C(=O)N([C@H](C)CO)C[C@H](C)[C@@H](CN(C)C(=O)Nc1cccc3ccccc13)O2	40.3
C[C@@H]1CN([C@@H](C)CO)C(=O)Cc2cc(NC(=O)Nc3cccc4ccccc34)ccc2O[C@@H]1CN(C)Cc1ccc(C(F)(F)F)cc1	117.4*
Cc1ccc2nc(-c3ccc(NC(=O)CSc4ncn[nH]4)cc3)sc2c1	15.7
C[C@H](CO)N1C[C@H](C)[C@H](CN(C)S(=O)(=O)c2ccc(F)cc2)Oc2ccc(NC(=O)CCC(F)(F)F)cc2CC1=O	125.7*
O=C1CC(C(=O)Nc2ccc(O)c(C(=O)O)c2)C(c2ccccc2)O1 (centres undefined)	13.3

Twelve structures already listed, sorted by number of heavy atoms, descending:
SMILES	NOMO-1 viab
C[C@@H]1CN([C@@H](C)CO)C(=O)Cc2cc(NC(=O)Nc3cccc4ccccc34)ccc2O[C@@H]1CN(C)Cc1ccc(C(F)(F)F)cc1	117.4*
C[C@@H]1CN([C@H](C)CO)C(=O)c2cccc(NC(=O)NC3CCCCC3)c2O[C@H]1CN(C)C(=O)Nc1ccc(C(F)(F)F)cc1	8.1
Cc1ccc(S(=O)(=O)Nc2ccc3c(c2)CC(=O)N([C@H](C)CO)C[C@@H](C)[C@H](CN(C)Cc2ccc4c(c2)OCO4)O3)cc1	9.0
CC(C)NC(=O)Nc1ccc2c(c1)C(=O)N([C@H](C)CO)C[C@H](C)[C@@H](CN(C)C(=O)Nc1cccc3ccccc13)O2	40.3
COc1ccc(CN(C)C[C@H]2OCCCC[C@@H](C)Oc3ccc(N(C)C)cc3C(=O)N([C@H](C)CO)C[C@@H]2C)cc1	7.7
Cc1noc(C)c1NC(=O)Nc1ccc2c(c1)C(=O)N([C@@H](C)CO)C[C@@H](C)[C@H](CN(C)CC1CCCCC1)O2	2.6
CC(C)NC(=O)Nc1ccc2c(c1)CC(=O)N([C@H](C)CO)C[C@@H](C)[C@@H](CN(C)C(=O)Nc1ccccc1)O2	14.9
O=C(CSc1nnc(-c2ccccc2O)n1-c1ccccc1)N1CCc2ccccc21	47.1
COc1ccc(-n2c(SCC(=O)N3CCOCC3)nnc2-c2ccc(Cl)cc2)cc1	8.7
Cc1ccc2nc(-c3ccc(NC(=O)CSc4ncn[nH]4)cc3)sc2c1	15.7
O=C1CC(C(=O)Nc2ccc(O)c(C(=O)O)c2)C(c2ccccc2)O1 (centres undefined)	13.3
COc1ccc(OCC(O)CNC(C)(C)C)cc1 (centres undefined)	3.5

(next part)
SMILES	NOMO-1 viab
OCc1cc2c(cn1)[nH]c1ccccc12	15.3
CC(C)NC(=O)N(C)C[C@H]1Oc2ccc(NS(C)(=O)=O)cc2CC(=O)N([C@H](C)CO)C[C@H]1C	9.3
COc1ccc(S(=O)(=O)Nc2ccc3c(c2)CC(=O)N([C@@H](C)CO)C[C@H](C)[C@@H](CN(C)S(=O)(=O)c2ccc(F)cc2)O3)cc1	-0.6
CC(=O)c1ccc(NC(=O)c2ccc(CSc3ccccn3)cc2)cc1	-8.1
C[C@H](CO)N1C[C@H](C)[C@@H](CN(C)C(=O)NC2CCCCC2)Oc2c(NS(C)(=O)=O)cccc2C1=O	10.1
Cc1noc(C)c1NC(=O)Nc1cccc2c1O[C@@H](CN(C)Cc1ccc(C(F)(F)F)cc1)[C@@H](C)CN([C@@H](C)CO)C2=O	10.7
Cn1nc(C(C)(C)C)cc1C(=O)Nc1cccnc1	23.4
COc1ccc(S(=O)(=O)N(C)C[C@H]2OCCCC[C@@H](C)Oc3ccc(N(C)C)cc3C(=O)N([C@H](C)CO)C[C@@H]2C)cc1	10.1
C[C@H]1CN([C@@H](C)CO)C(=O)Cc2cc(NC(=O)Nc3ccc(C(F)(F)F)cc3)ccc2O[C@@H]1CN(C)Cc1ccc(-c2ccccc2)cc1	127.0*
Cc1noc(C)c1S(=O)(=O)N(C)C[C@H]1Oc2c(NC(=O)C3CCOCC3)cccc2C(=O)N([C@@H](C)CO)C[C@H]1C	-10.7
C[C@H]1CN([C@@H](C)CO)C(=O)Cc2cc(NS(=O)(=O)c3cn(C)cn3)ccc2O[C@@H]1CN(C)S(=O)(=O)c1ccc(Cl)cc1	-4.6
COc1ccc(S(=O)(=O)N(C)C[C@H]2Oc3c(cccc3N(C)C)C(=O)N([C@H](C)CO)C[C@@H]2C)cc1	-0.5
Cc1csc2sc(-c3ccnc(SCC(=O)c4ccccc4)n3)c(C)c12	0.8
C[C@@H]1CN([C@@H](C)CO)C(=O)c2cccc(NS(=O)(=O)c3cccs3)c2O[C@H]1CN(C)S(=O)(=O)c1cn(C)cn1	2.4
CS(=O)(=O)N(CC(=O)Nc1cc(C(F)(F)F)ccc1Cl)c1cccc(F)c1	-3.2
C[C@H]1CN([C@@H](C)CO)C(=O)Cc2cc(NC(=O)C3CC3)ccc2O[C@H]1CN(C)C(=O)Nc1ccc(C(F)(F)F)cc1	-3.2
